D2 potentiator – human D2 receptor positive allosteric modulation | potentiation, % (no concentration beside the values) | DiscoveRx D2 beta-arrestin cells, luminescence, 90 min; 100% = 57 uM dopamine signal | hit rate 0.23% among 360,000 | P14416; active = potentiation of 50% or more; inconclusive = 30% to 50%; inactive = 30% or less;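 also: compound concentration not given in the record; tested on top of an EC20 dose of dopamine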
Target sequence (P14416 whole entry, looked up): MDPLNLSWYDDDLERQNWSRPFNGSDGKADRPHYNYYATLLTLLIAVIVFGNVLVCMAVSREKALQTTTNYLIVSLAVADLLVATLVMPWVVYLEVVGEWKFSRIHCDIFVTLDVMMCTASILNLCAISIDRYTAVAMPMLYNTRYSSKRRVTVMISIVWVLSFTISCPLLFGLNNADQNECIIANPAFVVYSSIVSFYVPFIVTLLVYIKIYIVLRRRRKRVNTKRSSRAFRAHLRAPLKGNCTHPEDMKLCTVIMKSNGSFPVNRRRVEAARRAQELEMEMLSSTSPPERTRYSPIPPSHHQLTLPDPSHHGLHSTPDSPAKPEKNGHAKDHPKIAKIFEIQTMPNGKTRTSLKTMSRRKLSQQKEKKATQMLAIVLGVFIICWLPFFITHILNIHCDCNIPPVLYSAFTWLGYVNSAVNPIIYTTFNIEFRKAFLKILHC
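PathHunter beta-arrestin assay in DiscoveRx D2 cells. Compounds were added with an EC20 of dopamine (50 nM final) for 90 min at 37 deg C. Luminescence was read 1 h after detection reagent, with 57 uM dopamine as the EC100 control.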
TRPML1 agonist – activates the human TRPML1 channel; AID 624414; TRPML1-expressing cells, Ca2+ dye fluorescence, FDSS; host cell line not named in the record; reference of the full effect not given here; hit rate 0.12% among 410,000; activation, % (test concentration not listed); Q9GZU1; in the data active = activation above about 50%; inconclusive = about 30% to 50%; inactive = below about 30%; also: 0% is about no effect; the text of the record puts the active cut at 80%
Target sequence (Q9GZU1 whole entry, looked up): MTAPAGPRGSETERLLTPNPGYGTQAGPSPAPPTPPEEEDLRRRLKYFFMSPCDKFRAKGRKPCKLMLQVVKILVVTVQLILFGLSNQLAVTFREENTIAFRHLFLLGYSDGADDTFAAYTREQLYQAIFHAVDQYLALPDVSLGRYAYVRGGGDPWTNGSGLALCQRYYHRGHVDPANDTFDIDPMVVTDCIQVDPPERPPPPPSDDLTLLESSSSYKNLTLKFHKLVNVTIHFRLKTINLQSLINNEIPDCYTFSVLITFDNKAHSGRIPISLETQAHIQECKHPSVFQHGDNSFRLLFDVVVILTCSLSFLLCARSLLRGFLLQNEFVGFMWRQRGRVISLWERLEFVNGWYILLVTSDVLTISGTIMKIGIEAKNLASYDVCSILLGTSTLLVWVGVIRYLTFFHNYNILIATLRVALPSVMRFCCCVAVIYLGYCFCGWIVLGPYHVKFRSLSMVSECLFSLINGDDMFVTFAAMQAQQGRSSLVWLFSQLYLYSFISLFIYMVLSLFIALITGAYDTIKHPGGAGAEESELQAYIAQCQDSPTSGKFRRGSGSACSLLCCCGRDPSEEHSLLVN
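TRPML1-DL cells, Tet-induced overnight (~16 h, 37 degrees C), loaded 45-90 min at room temperature with Ca8 no-wash calcium dye plus quencher. FDSS fluorescence: 10 s baseline, compound pin-transfer, 110 s agonist read, then EC80 54-4 (4uM final) and 110 s antagonist read.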
Six1-Eya2 blk – inhibitors of human Six1/Eya2 interaction; hit rate 0.56% among 360,000; activity change, % (concentration not given with the values); AlphaScreen GST-Six1/His-Eya2 binding, biochemical; stronger effect = lower value; control for the full effect not named in the record; Q15475+O00167; in the data active = activity change below about -65%; inconclusive = about -30% to -65%; inactive = above about -30%; also: % is scaled to controls: 0 for no effect and ±100 for the full control effect
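Six1/Eya2 binding was read as AlphaScreen signal after compounds were pinned into GST-Six1 plus His-tagged Eya2 (5X stock 250/500 nM) in pH 8.0 Tris/NaCl/TCEP buffer, beads added, then incubated 1 h, 37 C, dark.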
D2 ag – agonists of human D2 dopamine receptor (beta-arrestin); activation, % (test concentration not listed); hit rate 0.084% among 360,000; P14416; DiscoveRx PathHunter D2 beta-arrestin, luminescence, 90 min; 100% = 57 uM dopamine signal; in the data active = activation above about 40%; inconclusive = about 15% to 40%; inactive = below about 15%; also: compound concentration not given in the record; the text of the record calls up to 30% inactive
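Agonist mode: compounds alone added to overnight-plated D2 PathHunter cells for 90 min at 37 C, with 57 uM final dopamine (EC100) defining full response. Beta-arrestin recruitment detected by chemiluminescent reagent, read after 1 h at ambient temperature.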
PINK1 expr mod – modulators of PINK1 expression | PINK1 immunofluorescence, high-content cytometry, 24 h | Potency, µM (highest dose often 76.6 µM), for the others: at the highest dose activation (PINK1 increase), most hits filed as activators | hit rate 0.2% among 410,000 | AID 624263; active = well fitted activation curve with a large enough effect; inconclusive = small, poorly fitted or top-dose-only effect; inactive = flat fitted curve, though single readings scatter; cell line not stated here;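 also: potency is read from the fitted curve at half-maximal effect; % of control where 0% means no effect; nearly all actives have a fitted effect of over 65% in size; a mitochondrial uncoupler was the plate control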
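Stable cell line treated 24 h with compounds at 5 concentrations (CCCP controls), then fixed and immunostained for PINK1 plus nuclear and cell stains; PINK1 immunofluorescence quantified by laser-scanning microplate cytometry.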
CtBP-E1A blk – CtBP/E1A binding inhibition | AlphaScreen GST-E1A/His-CtBP binding, 1536-well; stronger effect = lower value; control for the full effect not named in the record | activity change, % (test concentration not listed) | hit rate 0.49% among 340,000; in the data active means activity change below about -65%; inconclusive means about -30% to -65%; inactive means above about -30%; also: % is scaled to controls: 0 for no effect and ±100 for the full control effect; compound concentration not given in the record
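Homogeneous bead-based format: GST-tagged E1A captured on glutathione donor beads, His-tagged CtBP on nickel acceptor beads; compounds precede bead addition by 2 h at 37 °C.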
* marks the source's active call; other numbers are inactive results; u = inconclusive; x = not tested or not shown; & = joins results of further samples; [ ] = another dose, or the depositor's remark.

SMILES | D2 potentiator | TRPML1 agonist | Six1-Eya2 blk | D2 ag | PINK1 expr mod | CtBP-E1A blk
Cc1ccccc1OCC(=O)OC(C(=O)c1ccccc1)c1ccccc1 (stereo unspecified) | 0 | -0.4 | 10 | -2.0 | 0.8% | -3
O=c1[nH]c(C(F)(F)C(F)(F)C(F)(F)F)no1 | -6 | -0.1 | 12 | -0.6 | 0.5% | 2
COc1ccc(/C(C)=N/NC(=O)c2nnn(-c3nonc3N)c2-c2cccs2)cc1 | -9 | 1.3 | 3 | -4.5 | 12% | 5
NS(=O)(=O)c1ccc(NC(=O)CSc2nc3ccccc3c(=O)n2Cc2ccncc2)cc1 | -3 | -0.6 | 0 | -2.5 | 9.2% | -3
COc1ccc(C(=O)NNC(=O)c2cccs2)cc1S(=O)(=O)N1CCOCC1 | -1 | -0.3 | -1 | -4.7 | 0.9% | 5
CC(C)NC(=O)c1cc(C2CCCCN2S(=O)(=O)c2cccc3cccnc23)on1 (stereo unspecified) | 0 | -0.9 | -2 | 3.7 | -0.5% | 1
Cc1cc(N2Cc3ccccc3C2)ccc1C=O | 0 | -0.9 | -5 | 9.3 | 0.9% | x
Cc1cc(C)nc(SCSc2nc(C)cc(C)n2)n1 | -5 | -0.2 | 11 | -0.2 | 8.6% | 0
Oc1ccc(C[C@@H]2CNCCN2CCc2cccc(F)c2)cc1 | -7 | -0.4 | -3 | -1.7 | -0.3% | 1
Cc1cccc(/C(N)=N/OC(=O)C23CC4CC(CC(C4)C2)C3)c1 | -3 | 1.3 | 25 | -3.1 | 2.9% | 10
Cc1cc(=O)oc2cc(NC(=O)c3ccnn3C)ccc12 | -5 | 0.2 | 0 | 0.9 | 1.8% | 9
Nc1nonc1-n1nnc(C(=O)N/N=C\c2ccncc2)c1CN1CCCCC1 | -10 | 3.0 | -6 | -1.3 | 1.9% | x
COc1ccc(-c2cc3ccccc3n2CC(O)CN2CCCCC2)cc1 (stereo unspecified) | -24 | 0.3 | -30 | -0.2 | -1.3% | -23
O=C(COC(=O)/C=C/c1ccco1)Nc1ccccc1 | -1 | -0.6 | -8 | -0.7 | -0.7% | -2
CC(C)COc1ccc(N)cc1OCC(C)C | -9 | -0.7 | -5 | -3.7 | 9.9% | x
COc1ccc(/C=N/NC(=O)CN2CCCCCCC2)c(C)c1C | -22 | 0.5 | -8 | -1.8 | 15% | -12
CCC(SC1=Nc2ccccc2C2=NC(CC(C)C)C(=O)N12)C(=O)Nc1ccc2c(c1)OCO2 (stereo unspecified) | -8 | 0.5 | -9 | 0.5 | -0.7% | -5
CCN(CC(=O)Nc1c(F)cccc1F)C(=O)COc1ccc2c(c1)CCC2 | -24 | 0.1 | 5 | -1.6 | 0.6% | 2
O=C1C[C@@H]2c3c(cccc3CN1Cc1ccccc1)C[C@@H](O)[C@H]2O | -2 | 0.2&-0.2 | 5 | 1.1 | 0.3% | x
N#Cc1ccc(-c2csc(-c3ccno3)n2)cc1 | -3 | -0.5 | 4 | -4.6 | -1.5% | 2

An excerpt of these results, with each value named:
NS(=O)(=O)c1ccc(NC(=O)CSc2nc3ccccc3c(=O)n2Cc2ccncc2)cc1
  D2 potentiator: -3
  TRPML1 agonist: -0.6
  Six1-Eya2 blk: 0
  D2 ag: -2.5
  PINK1 expr mod: 9.2%
  CtBP-E1A blk: -3

COc1ccc(C(=O)NNC(=O)c2cccs2)cc1S(=O)(=O)N1CCOCC1
  D2 potentiator: -1
  TRPML1 agonist: -0.3
  Six1-Eya2 blk: -1
  D2 ag: -4.7
  PINK1 expr mod: 0.9%
  CtBP-E1A blk: 5

CC(C)NC(=O)c1cc(C2CCCCN2S(=O)(=O)c2cccc3cccnc23)on1 (stereo unspecified)
  D2 potentiator: 0
  TRPML1 agonist: -0.9
  Six1-Eya2 blk: -2
  D2 ag: 3.7
  PINK1 expr mod: -0.5%
  CtBP-E1A blk: 1

Cc1cc(N2Cc3ccccc3C2)ccc1C=O
  D2 potentiator: 0
  TRPML1 agonist: -0.9
  Six1-Eya2 blk: -5
  D2 ag: 9.3
  PINK1 expr mod: 0.9%
  CtBP-E1A blk: x

The list goes on:
SMILES | D2 potentiator | TRPML1 agonist | Six1-Eya2 blk | D2 ag | PINK1 expr mod | CtBP-E1A blk
CC(=O)NCCNC(=O)c1ccc(CSc2ccc(Cl)cc2)cc1 | -4 | -0.3 | -6 | -1.9 | 1.1% | 12
O=C(CN(C(=O)Cn1nnc(-c2ccc(F)cc2)n1)c1cccc(F)c1)NC1CCCC1 | -4 | 0.9 | -3 | 3.9 | -0.6% | -9
Cc1ccc(CNS(=O)(=O)c2ccc3c(c2)NC(=O)CS3)cc1 | -9 | 0.0 | -7 | -4.3 | -1.5% | x
CC(=O)c1cccc(OCCN2C(=O)NC(C)(C)C2=O)c1 | 2 | 1.9 | 0 | 2.4 | u | 6
CCN(CC)C(=O)C1=C(C)N(Cc2ccc(OC)cc2)C(=O)C(CC(=O)NCc2cccc3ccccc23)C1 (stereo unspecified) | 0 | -0.3 | -9 | -7.0 | 0.3% | -6
CCC(=O)Nc1c(C#N)c2nc3ccccc3nc2n1-c1ccccc1C | -11 | -1.0 | 9 | -2.5 | 2.0% | 6
COc1cccc(C(=O)Nc2c(C(N)=O)oc3ccccc23)c1 | 8 | -1.3 | -8 | -3.3 | -0.2% | -2
Cc1nn(CC(=O)NCCCN2CCCCC2)c(=O)c2cccn12 | -11 | 0.2 | -1 | -1.0 | 2.3% | x
O=C(CSc1nnc2c(n1)[nH]c1ccc(F)cc12)N1CCOCC1 | 10 | -0.7 | -13 | 1.0 | 0.9% | 0
Cc1ccccc1C(=O)Nc1cccc(NC(=O)c2ncn[nH]2)c1 | -4 | -0.4 | -8 | -2.3 | -0.6% | x
Cc1c(Cc2ccccc2)c(=O)oc2cc(OCC(=O)NCC(O)c3ccccc3)ccc12 (stereo unspecified) | -12 | 2.4 | -1 | 4.2 | 1.6% | x
O=c1[nH]c2ccccc2c(O)c1Cc1ccccc1 | -12 | -0.6 | 6 | -21 | 1.1% | -1
O=C(NCc1ccccc1)N1CCOc2ccccc21 | -5 | 0.2 | 1 | -4.4 | -0.2% | -4
COc1ccc2cc(C(=O)N3CCCCCC3)sc(=O)c2c1OC | -28 | 1.9 | -1 | 3.9 | 3.5% | 4
CC(=O)NC(N(C#N)c1nc(Cl)nc(N(C)C)n1)C(Cl)(Cl)Cl (stereo unspecified) | -5 | -0.1 | -8 | -3.4 | 0.4% | -13
Cc1ccc(CN2CCN(Cc3cnc(C)s3)CC2CCO)o1 (stereo unspecified) | -4 | 0.0 | 0 | -3.2 | 0.2% | 0
CSc1ccccc1NC(=O)CN(C)Cc1cccc(Cl)c1 | -6 | 2.8 | 26 | -0.9 | 3.1% | 22
Cc1ccc(C(=O)O)cc1NC(=O)C1=CSCCO1 | 1 | 0.2 | 19 | 0.0 | -1.5% | x
O=C(NCc1ccco1)C(c1ccccc1)N(C(=O)Cc1cccs1)c1cccnc1 (stereo unspecified) | -2 | -0.6 | -3 | 0.6 | 0.0% | -7
Cc1cc(C(=O)OCC(=O)Nc2cccc([N+](=O)[O-])c2)c(C)o1 | -15 | 1.3 | -7 | 0.0 | 3.5% | -1
CC(=O)c1c(C)[nH]c(C(=O)N(C)CC(=O)Nc2ccc(Cl)c(C(F)(F)F)c2)c1C | -21 | -0.7 | -7 | -2.3 | 0.3% | -8
CCOC(=O)c1ccc(NC(=S)N2CCSC2c2c(F)cc(F)cc2F)cc1 (stereo unspecified) | -5 | 2.9 | 1 | 1.4 | 16% | -1
CC(OC(=O)CNC(=O)c1cccs1)C(=O)Nc1ccc(S(N)(=O)=O)cc1 (stereo unspecified) | -8 | 1.3 | 0 | -3.2 | -1.6% | -9
Cc1cc(NC(=O)CSc2nnc(CNC(=O)c3c(F)cccc3F)o2)no1 | 2 | -0.5 | u | -0.6 | -1.2% | -80*
CC(NC(=O)c1ccccc1Cl)C1CC2CCC1C2 (stereo unspecified) | 0 | -0.3 | 13 | -5.8 | -0.2% | 6
Cc1ccc(-n2nc3ccc(NC(=O)c4ccc5c(c4)OCO5)cc3n2)cc1 | -4 | -0.5 | -2 | 2.6 | u | 0
O=C(/C=C/c1ccccc1)NCCc1ccc2c(c1)OCCO2 | -5 | -0.1 | 1 | -4.1 | -2.7% | -19
CCOc1ccc(CCNC(=O)CS(=O)Cc2nc(-c3ccc(C)cc3)oc2C)cc1OCC (stereo unspecified) | -9 | -0.8&-0.3 | -6 | -4.6 | 1.0%&-1.8% | x
CC1=NN(C(=O)c2ccc(Cn3nc(C)c([N+](=O)[O-])c3C)o2)C(O)(C(F)(F)F)C1 (stereo unspecified) | -11 | 0.7 | 3 | -3.0 | 1.2% | 3
COc1ccc(-c2coc3cc4oc(=O)cc(C)c4cc23)cc1F | 3 | 1.3 | 1 | -2.3 | 2.9%[38.3 µM] | 2
CC(C)(C)OC(=O)N(CCc1ccccc1)Cc1cccc(OCc2cccc(NC(=O)c3ccccc3)c2)c1 | -8 | 1.4 | -6 | -2.0 | 2.0% | 2
Cc1ccc(Sc2cc(C)nc(-c3ccccn3)n2)cc1 | -17 | 1.2 | 11 | -5.1 | 4.8% | 1
COc1ccc(C(c2nnnn2Cc2ccccc2)N2CCN(c3ccccc3)CC2)cc1 (stereo unspecified) | 18 | -0.3 | -14 | -2.5 | -0.5% | -6
COC(=O)CSc1nnc(-c2ccncc2)o1 | 5 | -0.8 | -4 | -3.3 | -2.3% | -2
O=C(CNc1cccc2ccccc12)N/N=C/C=C/c1ccco1 | 9 | 3.1 | -25 | -3.1 | 1.3% | x
Cc1cc(-c2c(C)[nH]n(-c3ccc(Cl)cc3)c2=O)n[nH]1 | 2 | 0.4 | u | -6.7 | 0.8% | u
Cc1oc(-c2ccc(Cl)cc2)nc1CN1CCCC(C(=O)N2CCOCC2)C1 (stereo unspecified) | -10 | 1.7 | 0 | -2.0 | 0.7% | 0
O=C(NCCc1ccco1)c1ccc(OCc2cn3ccccc3n2)cc1 | 3 | -0.4 | -5 | -1.5 | 6.6% | -3
O=C(C[C@H]1C[C@H]2c3cc(NS(=O)(=O)c4ccc(F)cc4)ccc3O[C@H]2[C@H](CO)O1)NCc1ccncc1 | x | x | -2 | 0.3 | -0.1% | 4
CCN1CCSc2ccc(C(=O)NCc3ccccc3Br)cc21 | -11 | 2.6&1.9 | -16 | -3.3 | -0.8%&-0.6% | -11
Cc1nn(-c2ccccc2)c2[nH]c(=O)c(CNCC3CCCO3)cc12 (stereo unspecified) | -15 | 1.3 | -21 | -5.0 | 0.5% | u

Compound profiles, as listed above.
CCN1CCSc2ccc(C(=O)NCc3ccccc3Br)cc21 across the screens: D2 potentiator: -11; TRPML1 agonist: 2.6&1.9; Six1-Eya2 blk: -16; D2 ag: -3.3; PINK1 expr mod: -0.8%&-0.6%; CtBP-E1A blk: -11
Cc1ccc(Sc2cc(C)nc(-c3ccccn3)n2)cc1 across the screens: D2 potentiator: -17; TRPML1 agonist: 1.2; Six1-Eya2 blk: 11; D2 ag: -5.1; PINK1 expr mod: 4.8%; CtBP-E1A blk: 1

Assay outcomes from PubChem BioAssay.
